Compound activity deposited in PubChem BioAssay by several laboratories.
PABP polyA inh – PABP poly(A) RNA binding inhibitors, primary screen, biochemical, fluorescence polarization, uHTS; inhibition, % at 35 µM; Polyadenylate-binding protein 1 (Homo sapiens), P11940; 1% of 290,000 active;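 active = 50% or more with normal probe brightness, or confirmed in later tests; about a fifth of its hits are not listed in these tables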;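 also: calls also rest on retests at 20 µM and on dose response follow-up; controls were probe without protein and protein plus probe with vehicle; some compounds called inactive have numbers as strong as hits; many hits fall short of the cut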
eIF4H FP inh – human eIF4H binding inhibitors, primary screen, translation initiation inhibitor project, biochemical, uHTS, fluorescence polarization. AID 2012, 2009. Eukaryotic translation initiation factor 4H (Homo sapiens), Q15056. eIF4H fluorescence polarization binding assay. inhibition, % at 35 µM. 0.94% of 290,000 active;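 active = 50% or more with normal probe brightness, or confirmed in later tests; about a fifth of its hits are not listed in these tables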;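 also: calls also rest on retests at 20 µM and on dose response follow-up; 0% = protein and probe with vehicle and 100% = probe without protein; strong numbers were not always called active; many hits fall short of the cut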
Yeast UUG start – modulators of yeast start codon fidelity, primary screen, whole organism, S. cerevisiae, single point, plate reader; AID 602363, 2012; S. cerevisiae UUG-firefly luciferase reporter, luminescence/redox ratio; 0.13% of 350,000 active; activity score, % at 18.7 µM;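 active = replicate mean at a twofold rise or more, about +100% in these data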;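 also: firefly luciferase made from a UUG start codon reports start codon fidelity; reporter light over untreated wells divided by growth signal over untreated wells; some hits fall short of that in this replicate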
CSC inhib – cancer stem cell viability inhibitors, primary screen, luminescence. 1.1% of 300,000 active. inhibition, % at 7.5 µM. cancer stem cell-like cells viability;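 active = mean at 75% or more and at least half the replicates too; tested in HMLE shEcad cells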;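 also: 0% = median of negative and 100% = median of positive control wells; the first replicate is given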
Rce1 inhib – yeast Rce1p protease inhibitors, primary screen, biochemical, fluorescence, cell-free homogeneous; yeast membranes, quenched prenylated peptide cleavage fluorescence; 0.27% of 290,000 active; calls only;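 active = fall in fluorescence gain of 50% or more versus controls, with final raw signal at or below 3038400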;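 also: plate controls were neutral control wells for no effect and wells lacking membranes for full effect; tested at 10 µM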
Target sequence (Q03530 whole entry, looked up): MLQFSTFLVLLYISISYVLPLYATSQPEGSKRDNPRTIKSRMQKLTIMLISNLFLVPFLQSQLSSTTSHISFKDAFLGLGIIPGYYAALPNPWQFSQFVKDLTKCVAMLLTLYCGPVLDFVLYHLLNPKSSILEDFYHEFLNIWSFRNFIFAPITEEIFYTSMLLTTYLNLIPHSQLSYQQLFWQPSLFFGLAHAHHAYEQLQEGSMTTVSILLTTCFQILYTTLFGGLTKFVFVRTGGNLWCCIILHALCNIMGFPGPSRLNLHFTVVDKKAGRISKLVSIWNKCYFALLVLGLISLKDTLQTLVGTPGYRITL
Env fusion inh – inhibitors of HIV-1 Env-driven cell-cell fusion, primary screen, HeLa-JRFL effector, CEM21 target cells, luciferase; inhibition, % at 12.3 µM; 1.1% of 360,000 active;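 active = mean replicate inhibition score of at least 50 and every replicate individually at or above 50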;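 also: 0% = plate neutral controls and 100% = maraviroc near 300 nM; one replicate is shown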
MT1-MMP act inh – blockers of MT1-MMP proenzyme processing, primary screen, HT1080 RFP-PRO-GFP cells, GFP/RFP fluorescence; GFP/RFP ratio fluorescence, overnight; percent of plate control window, DMSO zero; GFP/RFP ratio change, % at 20 µM; 0.061% of 360,000 active; AID 651647, 2012;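 active = GFP/RFP ratio change of at least 30% with cell ATP level not reduced by more than half and red fluorescence within 50% of control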; also: strong numbers were not always called active
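Test system: HT1080 RFP-PRO-GFP cells; Benchmarks: DMSO and RFP-L50D-GFP cell wells; Timing: cells overnight before dosing, compound overnight, 37 °C, 5% CO2; Compound: one 20 µM compound dose with 1% DMSO; Read-out: GFP/RFP fluorescence ratio.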
MT1-MMP act inh RFP – recorded beside MT1-MMP act inh, whose call it bears; RFP signal change, %; measured here: RFP expression control read;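 0 = vehicle wells; hits needed this value within 50% of zero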
Numbers without * were called inactive; i = inactive; . = not tested or not shown; + = active, no number.

nr | canonical_smiles | MT1-MMP act inh | PABP polyA inh | eIF4H FP inh | Yeast UUG start | Rce1 inhib | Env fusion inh | CSC inhib | MT1-MMP act inh RFP
1 | COCCN(C(=O)c1cccc(N2C(=O)CCC2=O)c1)c1nc(-c2ccc([N+](=O)[O-])cc2)cs1 | -10 | . | . | -2 | i | -1 | 6 | -23
2 | Cc1ncoc1C(=O)NC1CCCc2c1cnn2-c1ccc(C(C)(C)C)cc1 (centres undefined) | 3 | -13 | -1 | -6 | i | 56* | . | -31
3 | Cn1c(SCC(=O)NNC(=O)Nc2ccc(Cl)cc2)nnc1-c1ccccc1 | . | 0 | -2 | . | i | 3 | -3 | .
4 | O=C(Nc1ccc(F)cc1)C1CC(=O)n2c(nc3ccccc32)N1 (centres undefined) | -2 | -2 | -6 | -1 | i | -7 | 4 | 0
5 | Cc1ccc(N(Cc2ccccc2)C(=O)c2ccc(S(=O)(=O)N3CCOCC3)cc2)cc1 | -7 | . | . | . | i | 6 | -14 | -8
6 | CC(C)(C)OC(=O)[C@H](Cc1ccccc1)NC(=O)c1[nH]cnc1C(=O)Nc1ccc(Cl)cc1 | -6 | 6 | 6 | -5 | i | -5 | 120* | -10
7 | O=P1(NC2CCCC2)OCC2(CO1)COP(=O)(NC1CCCC1)OC2 (centres undefined) | -1 | . | . | 0 | . | 14 | . | 0
8 | COc1ccc(-n2c(CCC(=O)O)ccc2-c2ccc(F)cc2)c(OC)c1 | 2 | 2 | -7 | -22 | i | -6 | 7 | 5
9 | Cc1cccc(N(C)S(=O)(=O)c2cccc3nsnc23)c1 | 1 | -9 | -4 | -18 | i | -61 | 1 | 2
10 | Cc1ccc(-c2nc3ccccc3o2)cc1NC(=O)Cc1cccs1 | 0 | -5 | 22 | -17 | i | . | 7 | 7
11 | CCC(=O)Nc1ccc2c(c1)nc(CCNC(=O)c1ccco1)n2C | 1 | 12 | 7 | -15 | i | 7 | -12 | 3
12 | CC(=O)N1c2ccc(S(=O)(=O)NCC3CCC(C(=O)Nc4ncccc4C)CC3)cc2CC1C (centres undefined) | 1 | 3 | -16 | -2 | i | 2 | -7 | -2
13 | CCCc1cc(=O)oc2cc(OCC(=O)NCCCN3CCOCC3)c(Cl)cc12 | 1 | 4 | 10 | -9 | i | -3 | 37 | 5
14 | CC(=O)c1c(C)[nH]c(C(=O)OCc2ccc(Br)cc2)c1C | -10 | -3 | 0 | . | + | 18 | 2 | -24
15 | CCCCCN(C(=O)NC(=O)NC(C)CC)S(C)(=O)=O (centres undefined) | 3 | 4 | 0 | -25 | i | . | . | 2
16 | COCCn1c(C)cc(C(=O)COC(=O)CCS(=O)(=O)c2ccc(C)cc2)c1C | 4 | . | . | . | i | 1 | -6 | 3
17 | Cc1cc2c(c(=O)n1CCCn1ccnc1)C(c1ccco1)C(C#N)=C(N)O2 (centres undefined) | -3 | -1 | 3 | -12 | i | -4 | -4 | 0
18 | COC(=O)c1cc(S(=O)(=O)NCC2CCN(CCc3cccs3)CC2)cn1C | 3 | 2 | -3 | 1 | i | -5 | -6 | 0
19 | Cc1nn(CCc2n[nH]c(=S)n2-c2cccc(Cl)c2)c(C)c1[N+](=O)[O-] | 6 | -6 | -13 | 1 | i | -7 | -7 | 2
20 | Cc1ccc2c(c1)C1CN(C)CCC1N2C(=O)c1ccc(Cl)c(S(=O)(=O)N2CCOCC2)c1 (centres undefined) | -7 | 8 | -2 | -17 | i | 0 | -7 | -3
21 | CN(Cc1ccccc1)C(=O)COC(=O)COc1ccc(C#N)cc1 | -1 | 6 | -6 | 0 | i | 10 | 11 | 1

From entry 3 as far as 6, as listed above:
nr | canonical_smiles | MT1-MMP act inh | PABP polyA inh | eIF4H FP inh | Yeast UUG start | Rce1 inhib | Env fusion inh | CSC inhib | MT1-MMP act inh RFP
3 | Cn1c(SCC(=O)NNC(=O)Nc2ccc(Cl)cc2)nnc1-c1ccccc1 | . | 0 | -2 | . | i | 3 | -3 | .
4 | O=C(Nc1ccc(F)cc1)C1CC(=O)n2c(nc3ccccc32)N1 (centres undefined) | -2 | -2 | -6 | -1 | i | -7 | 4 | 0
5 | Cc1ccc(N(Cc2ccccc2)C(=O)c2ccc(S(=O)(=O)N3CCOCC3)cc2)cc1 | -7 | . | . | . | i | 6 | -14 | -8
6 | CC(C)(C)OC(=O)[C@H](Cc1ccccc1)NC(=O)c1[nH]cnc1C(=O)Nc1ccc(Cl)cc1 | -6 | 6 | 6 | -5 | i | -5 | 120* | -10

Rce1 inhib: what is marked active above.
no.	mol	MT1-MMP act inh	Yeast UUG start	Rce1 inhib	Env fusion inh	MT1-MMP act inh RFP
14	CC(=O)c1c(C)[nH]c(C(=O)OCc2ccc(Br)cc2)c1C	-10	.	+	18	-24

Compound profiles, from the list above. Order of screens: MT1-MMP act inh	PABP polyA inh	eIF4H FP inh	Yeast UUG start	Rce1 inhib	Env fusion inh	CSC inhib	MT1-MMP act inh RFP
Results for CC(C)(C)OC(=O)[C@H](Cc1ccccc1)NC(=O)c1[nH]cnc1C(=O)Nc1ccc(Cl)cc1 = -6	6	6	-5	i	-5	120*	-10
Results for CC(=O)c1c(C)[nH]c(C(=O)OCc2ccc(Br)cc2)c1C = -10	-3	0	.	+	18	2	-24
Results for COC(=O)c1cc(S(=O)(=O)NCC2CCN(CCc3cccs3)CC2)cn1C = 3	2	-3	1	i	-5	-6	0
Results for O=C(Nc1ccc(F)cc1)C1CC(=O)n2c(nc3ccccc32)N1 (centres undefined) = -2	-2	-6	-1	i	-7	4	0
Results for CN(Cc1ccccc1)C(=O)COC(=O)COc1ccc(C#N)cc1 = -1	6	-6	0	i	10	11	1

This is a subset, so the mix of outcomes need not match the whole.
